PrP UTR inh – inhibition of PrP 5' UTR reporter expression; cell-based PrP 5' UTR mRNA reporter, plate reader; inhibition, % (concentration not given with the values); actives 0.35% (n = 340,000); AID 488862, 2010;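 active means every replicate at 50% or more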;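 further: 0 = median of the neutral control wells; tested in H4 reporter cells; numbers are from one replicate; inactives centre near -14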
Bead autofluor – flagged as autofluorescent in microsphere protease counterscreen; compound autofluorescence counterscreen, microsphere flow cytometry; stronger effect = higher value; fluorescence intensity (concentration not given with the values); actives 3.1% (n = 360,000);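 active means at least 3 SD above the mean of all compounds, about 16000 in these data; inconclusive means too few beads counted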;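 further: 100 nL of 1 mM stock went into each well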
The depositor's hits bear a star; ? = inconclusive. This is a subset, so the mix of outcomes need not match the whole.

Start of the listing, in advance, three compounds:
SMILES	PrP UTR inh	Bead autofluor
COC(=O)[C@]1(Cc2ccccc2)N[C@H](CN(C)S(=O)(=O)c2ccc(OC)cc2)[C@@H]2C(=O)N(C)C(=O)[C@@H]21	-47	3553
CCc1ccc(N=Nc2ccc(O)c3[nH]cnc23)cc1	-34	4109
CCOC(=O)N1C2CCC(C2)N1C(=O)OCC	-4	4232

Main list (from the top)
SMILES	PrP UTR inh	Bead autofluor
COC(=O)[C@]1(Cc2ccccc2)N[C@H](CN(C)S(=O)(=O)c2ccc(OC)cc2)[C@@H]2C(=O)N(C)C(=O)[C@@H]21	-47	3553
CCc1ccc(N=Nc2ccc(O)c3[nH]cnc23)cc1	-34	4109
CCOC(=O)N1C2CCC(C2)N1C(=O)OCC	-4	4232
CCCN(Cc1nnc(-c2cccs2)o1)C(=O)CN1C(=O)NC2(CCC(C)CC2)C1=O (configuration not stated)	0	4170
C[C@H]1COC(=O)[C@@H](Cc2ccc(F)cc2)C/C=C\C[C@H](CC(=O)NCCO)C(=O)N1	-20	4221
CC(=O)N1Cc2cnnn2-c2ccccc2C1(C)C#N (configuration not stated)	-7	3968
C=CC[C@H](CC(=O)NCCO)C(=O)NC[C@H](OC(=O)[C@@H](CC=C)Cc1ccc(F)cc1)c1ccccc1	3	3118
COc1ccc(Cl)c2sc(N(CCN(C)C)C(=O)C3=COCCO3)nc12	-12	?
O=c1/c(=C/c2ccc(O)cc2)sc2n1CCCN=2	-98	2995
Cc1cn(CC(=O)NCc2ccc3c(c2)OCO3)c(=O)[nH]c1=O	-19	3851
CNc1snc(C)c1C(=O)OCC(=O)c1cc(F)ccc1OC	-5	3016
Cn1c(=O)c2[nH]c(C=Cc3ccc4c(c3)OCO4)nc2n(C)c1=O	-3	3802
NN=C(NN=Cc1ccccc1)c1ccccc1	-40	3760
CO/N=C/C(C#N)=C/c1ccc(OC)cc1	-37	4608
O=C(Nc1ccc2ccccc2c1)[C@@H]1C[C@H]1[C@@H](NP(=O)(c1ccccc1)c1ccccc1)c1ccccc1	-24	3972
C=CC[C@@H](Cc1ccc(F)cc1)C(=O)OC[C@@H]1CCCN1C(=O)[C@@H](CC=C)CC(=O)NCCO	-13	4000
CN1CC[C@@H]2C(=O)N3CCc4ccc(-c5ccc6c(c5)OCO6)cc4[C@@H]3C[C@@H]21	-7	4089
CC(C)(C)OC(=O)[C@H](CCCCN)NC(=O)c1nc[nH]c1C(=O)N[C@@H](CCCCN)C(=O)OC(C)(C)C	-8	4112
CC(=O)Nc1ccc2c(c1)C(=O)c1cccc(C(=O)O)c1-2	40	3273
COc1cc(C2c3cc4c(cc3CC3COC(=O)N32)OCO4)cc(OC)c1OC (configuration not stated)	58*	3239
CC(C)(C)OC(=O)C[C@H]1C/C=C\C[C@H](CC(=O)NCCO)C(=O)NCCOC1=O	-23	4236
C=CC[C@@H](CC(=O)N(CCO)Cc1ccccc1)C(=O)N[C@@H](COC(=O)[C@H](CC=C)CC(=O)OC(C)(C)C)Cc1c[nH]c2ccccc12	-20	3289
CCC(C)C1NC(=O)C2CCCN2C(=O)C(CC(C)C)OC(=O)CCNC(=O)C(C)N(C)C(=O)C(C(C)C)N(C)C1=O (configuration not stated)	0	3996
O=C(Cc1ccccc1)N/N=C\c1ccc(Br)o1	-3	10278
COc1cc(O)c(C(C)=O)c2c1C=CC(C)(C)O2	-5	3991
C[C@@H]1COC(=O)[C@H](NC(=O)OCC2c3ccccc3-c3ccccc32)C/C=C\C[C@@H](CC(=O)N(CCO)Cc2ccccc2)C(=O)N1	-25	3439
O=C(NCc1ccccc1)c1cccc(NC(=O)C2CCC2)c1	-17	3894
Cc1ccc(NP(=O)(Oc2ccccc2)Oc2ccccc2)cc1	5	4121
CCN1C[C@@H]2[C@@H]3C(=O)N(C)C(=O)[C@@H]3[C@](C)(C1=O)N2C(=O)c1ccc(C)cc1	-8	3735
CN(CCCn1cnc2c(OCc3ccccc3)ncnc21)CCc1ccccn1	-20	3107
CC(C)C[C@@H](CN)NC(=O)c1nc[nH]c1C(=O)N[C@@H](C)C(=O)CNC[C@H](C)NC(=O)c1nc[nH]c1C(=O)N[C@@H](CC(=O)O)C(=O)O	-21	3661
CN(C)S(=O)(=O)c1cccc(NC(=S)NNC(=O)c2cc3ccccc3cc2O)c1	-13	3803
C=CC[C@@H](CC(=O)N[C@@H](CO)Cc1ccccc1)C(=O)N[C@H](COC(=O)[C@H](CC=C)CC(=O)OC(C)(C)C)Cc1ccccc1	-14	4026
Cc1ccc(C(=O)N2[C@@H]3CN(C)C(=O)[C@@]2(C)[C@H]2C(=O)N(Cc4ccccc4)C(=O)[C@@H]32)cc1	-6	3661
COc1cc(C(=O)NNC(=O)c2cc(-c3ccccc3)n[nH]2)cc(OC)c1C	10	3731
COC(=O)[C@H](Cc1ccccc1)NC(=O)[C@@H](N)CC(=O)OCc1ccccc1	-3	3931
C#CCOCCOCCOCCNc1nc(N2CCN(C(=O)[C@H](CCCCN)n3cc(CN)nn3)CC2)nc(N2CCN(C(=O)[C@H](CCCN=C(N)N)n3cc(C(N)[C@H](C)CC)nn3)CC2)n1 (some centres not stated)	-14	3543
CN1C2CCC1CC(OC(=O)c1cccc(O)c1)C2 (configuration not stated)	-13	5060
CC(=O)c1cc2c(cc1NC(=O)c1ccc(-n3nc(C)cc3C)cc1)OCO2	-33	4580
COc1ccc(NC(=O)N(C)C[C@H]2Oc3ccc(NS(=O)(=O)c4ccc(F)cc4)cc3C(=O)N([C@H](C)CO)C[C@@H]2C)cc1	-16	3112
CC(C)C(Cl)=NOC(=O)Nc1ccc(F)cc1	-17	3460
Clc1ccc2c(c1)C1CC2CCN1Cc1ccccc1 (configuration not stated)	-8	3121
O=C1C=C(c2ccc3c(c2)oc2ccccc23)C[C@@H](c2ccc3c(c2)OCO3)C1	-6	3950
Cc1c(NS(=O)(=O)c2ccc(C(=O)N(C)Cc3cccc(Cl)c3Cl)cc2)c(=O)n(-c2ccccc2)n1C	-5	2777
COc1ccc(NC(=O)c2ccc(NC(=O)CN3CCN(c4ccc(O)cc4)CC3)cc2)cc1	-17	3434
CCC1([N+](=O)[O-])COP(N)(=O)OC1 (configuration not stated)	-3	4183
Cc1ccccc1S(=O)(=O)N1[C@@H](c2ccc(F)cc2)C(C(=O)O)=CC[C@H]1c1ccc(Cl)cc1	-15	3618
C[C@H]1[C@H](C)CC[C@]2(C)CC[C@]3(C)C(=CC(=O)C4[C@@]5(C)CC[C@H](O)C(C)(C)C5CC[C@]43C)[C@H]12 (some centres not stated)	-5	4074
O=C1CCC[C@@H]2Cc3nc4ccc(O)cc4cc3[C@@H]3CCN1[C@H]23	-7	3714
COC(=O)C1=C(c2ccc(OC(F)(F)F)cc2)C[C@@H]2CC[C@H]1N2C(=O)NCCCOC(C)C	-4	3905
CCN(C(=O)CN1CCCCC1)c1c(N)n(Cc2ccccc2)c(=O)[nH]c1=O	-10	2900
CCCCNCCS(=O)(=O)NCc1ccccc1OC	-1	3513
C[C@@H]1NC(=O)[C@H](CCC(N)=O)NC(=O)c2cc([N+](=O)[O-])cc(I)c2NCCC[C@@H](C(N)=O)NC1=O	2	3163
O=C1NCCN(CC2CCN(CCc3ccc(Cl)c(Cl)c3)CC2)C1=O	6	3221
COC(=O)C1=C(c2ccc(OC(F)(F)F)cc2)C[C@@H]2CC[C@H]1N2C(=O)NC(C)C	-29	3532
COc1ccc([C@@H]2CC=C(C(=O)O)[C@H](c3ccc(F)cc3)N2S(=O)(=O)c2ccccc2C)cc1	-23	3661
Cc1ccc(CN2C(=O)COc3cc(NS(C)(=O)=O)ccc32)cc1	-9	4045
C/C=C(/C)C(=O)O[C@@H]1c2c(ccc3ccc(=O)oc23)OC(C)(C)[C@@H]1OC(C)=O	-8	3905
Cc1ccc(NC(=O)CCC(=O)c2ccccc2)cc1	-40	4434
COc1ccc([C@H]2CC(=O)C=C(c3ccc(SC)cc3)C2)cc1OC	-9	3481
Next entries:
SMILES	PrP UTR inh	Bead autofluor
O=C(Nc1cccc([N+](=O)[O-])c1)N(c1ccccc1)c1ccccc1	-3	3058
O=C1C=CC(=O)N1Cc1ccncc1	-25	4097
COc1ccc([C@H]2CC(=O)C=C(c3cccc(C#N)c3)C2)cc1	-13	4065
CN(Cc1c(F)cccc1Cl)C(=O)c1cccc(S(=O)(=O)N2CCN(Cc3ccccc3)CC2)c1	-16	4074
O=C1N[C@@H](Cc2c[nH]c3ccccc23)COC(=O)[C@@H](Cc2ccc(F)cc2)C/C=C\C[C@H]1CC(=O)N(CCO)Cc1ccccc1	-6	2982
O=c1[nH]nc(-c2n[nH]c(=O)o2)o1	-12	3950
CC(C)(O)C1CC[C@@](C)([C@@H]2CC[C@]3(C)[C@H]2[C@H](O)CC2[C@@]4(C)CCC(O)C(C)(C)C4C(OC4OC(CO)C(O)C(O)C4O[C@@H]4OCC(O)C(O)C4O)C[C@]23C)O1 (some centres not stated)	-25	3972
O=C1CCN(Cc2ccccc2)S(=O)(=O)c2ccc(F)cc21	3	4105
CCOC(=O)C1CCN(C(=O)c2ccccc2)C(CC)C1=O (configuration not stated)	-20	4280
CC(=O)c1ccc(NC(=O)CSc2nc3[nH]c(=O)cc(O)c3s2)cc1	-8	3950
Cc1ccc2c(C)cccc2c1	-2	6060
Cc1ccccc1N=C1Nc2ccccc2N[C@]12C[C@H]1CCC(=O)N3CC[C@@H](C2)[C@@H]13	-83	3898
O=C(CNc1cccc2ccccc12)N/N=C/c1ccc([N+](=O)[O-])cc1	-20	2033
Cc1noc(C)c1S(=O)(=O)Nc1ccc2c(c1)CC(=O)N([C@H](C)CO)C[C@H](C)[C@@H](CN(C)CC1CC1)O2	-10	4105
O=C(NC1CC1)c1ccc(NC(=O)C2CCC2)cc1	-23	3050
O=C(C[C@@H]1C/C=C\C[C@H](NC(=O)OCC2c3ccccc3-c3ccccc32)C(=O)O[C@H](c2ccccc2)CNC1=O)NCCO	-25	2835
OC(c1ccccc1)C(Nc1ccccn1)c1ccccc1 (configuration not stated)	-15	2968
O=C(Nc1ccc(C(=O)N2CCOCC2)cc1)C1CC1	-22	3910
CCCSc1ccc([C@@H]2[C@@H]3C(=O)N(C)C(=O)[C@@H]3[C@]3(C(=O)OC)CCCN23)cc1OC	-20	3070
COCC(=O)N(C)[C@H]1C[C@H]2c3cc(N4CCN(C)CC4)ccc3CCN2C(=O)[C@H]1[C@H](C)O	8	2985

One compound at a time (already shown):
Cc1noc(C)c1S(=O)(=O)Nc1ccc2c(c1)CC(=O)N([C@H](C)CO)C[C@H](C)[C@@H](CN(C)CC1CC1)O2 reads PrP UTR inh: -10; Bead autofluor: 4105
O=C(C[C@@H]1C/C=C\C[C@H](NC(=O)OCC2c3ccccc3-c3ccccc32)C(=O)O[C@H](c2ccccc2)CNC1=O)NCCO reads PrP UTR inh: -25; Bead autofluor: 2835

Continued.
SMILES	PrP UTR inh	Bead autofluor
Cc1ccc2c(c1)CCCN2CC(=O)N(C)c1c(N)n(Cc2ccccc2)c(=O)[nH]c1=O	-24	8942
O=[N+]([O-])c1cccc(COc2cccc(CO)c2)c1	-17	3784
N[C@@H](Cc1ccc(F)cc1)C(=O)O	-35	5593
Cc1ccc(-n2ncc3c(=O)[nH]c(SCC(=O)N4CCC(C)CC4)nc32)cc1C	-12	4160
CC(=O)c1cc(C)c(OCc2cn(CC(=O)c3ccc(O)cc3)nn2)c(C)c1	-22	4025
CC(C)C[C@H]1CNC(=O)C(=O)N1CC1CCN(CCC(C)(C)C)CC1	1	2922
O=C(COC(=O)c1cccnc1Cl)NC1CCCCC1	-35	3403
Cc1cc2c(c(CO)c1CCO)C(=O)[C@@H](C)[C@@H]2O	-16	3743
CC(=O)Oc1c(C)c(C)c2c(c1C)CC[C@@](C)(CCC[C@H](C)CCC[C@H](C)CCCC(C)C)O2	-10	5870
O=C(Cc1ccccc1[N+](=O)[O-])c1ccc2c(c1)OCO2	-41	4202
CC(C)NC(=O)N(C)C[C@H]1Oc2ccc(NS(=O)(=O)c3ccccc3)cc2C(=O)N([C@H](C)CO)C[C@@H]1C	-8	4183
C[C@H](NC(=O)c1nc[nH]c1C(=O)NCc1ccccc1)c1ccccc1	1	3789
CCSc1ccc([C@@H]2[C@H]3C(=O)N(CC)C(=O)[C@H]3[C@]3(C(=O)OC)CCCCN23)cc1OC	-12	4900
COC(=O)[C@H](Cc1ccc(O)cc1)NCCCn1cnc(C(=O)Nc2ccc(C)c(C)c2)n1	-12	3931
CCN1C(=O)N[C@@H](c2ccc(Br)cc2)C(C(=O)OC)=C1C	-17	3913
CCOc1ccc(Nc2ccc(S(=O)(=O)N3CCN(C)CC3)cc2[N+](=O)[O-])cc1OCC	-19	3064
Cc1ccc(/C=N/N2CCN(c3ccc(Cl)cc3)CC2)o1	-16	4885
CCCCCCCCNS(=O)(=O)CCNC1CCCCC1	-10	3789
CC(C)(C)OC(=O)C[C@H]1C/C=C\C[C@H](CC(=O)NCCO)C(=O)NC[C@H](c2ccccc2)OC1=O	-12	2827
CC12CC3CC1C(C(=O)O2)C3C(=O)O (configuration not stated)	-7	2995
CC(=O)Oc1ccc2c(c1)CCC1C2CCC2(C)C(OC(C)=O)CCC12 (configuration not stated)	-27	5678
CC(OC(=O)c1ccccc1C(=O)O)c1ccccc1 (configuration not stated)	-142	3714
CNC[C@H]1Oc2ccc(NC(=O)C3CCCCC3)cc2CC(=O)N([C@H](C)CO)C[C@@H]1C	1	2913

Quoted at random: 6 compounds from above, in no set order.
SMILES	PrP UTR inh	Bead autofluor
O=C(CNc1cccc2ccccc12)N/N=C/c1ccc([N+](=O)[O-])cc1	-20	2033
CC(=O)c1cc2c(cc1NC(=O)c1ccc(-n3nc(C)cc3C)cc1)OCO2	-33	4580
CCN1C[C@@H]2[C@@H]3C(=O)N(C)C(=O)[C@@H]3[C@](C)(C1=O)N2C(=O)c1ccc(C)cc1	-8	3735
CCCN(Cc1nnc(-c2cccs2)o1)C(=O)CN1C(=O)NC2(CCC(C)CC2)C1=O (configuration not stated)	0	4170
C[C@H](NC(=O)c1nc[nH]c1C(=O)NCc1ccccc1)c1ccccc1	1	3789
COc1cc(C2c3cc4c(cc3CC3COC(=O)N32)OCO4)cc(OC)c1OC (configuration not stated)	58*	3239

Assay outcomes as filed in PubChem.
